# Ba CapD inh: Bacillus anthracis CapD inhibitors, primary screen, biochemical, fluorescence intensity; purified CapD enzyme, fluorescence intensity read-out; hits give low values; some hits fall short of the stated cut; z-score (no concentration beside the values); actives 0.23% (n = 140,000);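 active = z-score under -4 in either of two replicates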;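 also: stock transfer was 100 nL into about 40 µL; score is relative to mean and spread of the plate; one replicate is shown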
# AID504770: growth inhibition of E. coli YBA685, primary screen, V. cholerae RctB inhibitors; AID 504770, 2011; actives 0.27% (n = 130,000); E. coli YBA685 rctB-dependent plasmid, OD600 growth, 3 h; hits give low values; z-score (test concentration not listed);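 active = z-score under -2 on both plates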;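 also: wells of about 30 µL received 100 nL stock; score is relative to mean and SD of the test wells; the first replicate is given; strong numbers were not always called active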
# * = called active by the depositor; i = inactive; nt = not tested or not shown; & = joins results of further samples.
structure	Ba CapD inh	AID504770
CN(CCNc1ccc2nnc(-c3ccccc3)n2n1)C1CCCCC1	1.08	0.6
O=C(CSc1nnc2ccccn12)Nc1ccccc1	1.29	0.3
O=C(CN(c1ccc2c(c1)OCCO2)S(=O)(=O)c1ccccc1)Nc1ccc(S(=O)(=O)N2CCOCC2)cc1	-0.49	-1.2
CCn1cc(C2=NC(C(C)C)CO2)c2ccccc21 (stereo not given)	72.4	-0.8
CC(C)(C#N)NC1CC1	nt	1.3
N#CCOC(=O)c1cc(-c2ccccc2)nc2ccccc12	24.2	-0.9
O/N=C(\c1ccccc1)C12CC3CC(CC(C3)C1)C2	2.5	-0.55
COC(=O)c1ccc(C(=O)OC)c(NC(=O)c2cnn3c(C(F)(F)F)cc(-c4ccc(C)cc4)nc23)c1	-0.195	nt
O=[N+]([O-])c1cc(Cl)ccc1S(=O)(=O)c1ccccc1	-1.5	nt
CCCNC(=O)c1ccccc1NC(=O)C(C)Oc1ccc(Cl)cc1 (stereo not given)	-0.095	1.85
CCN(CC)S(=O)(=O)c1ccc(C(=O)NCCc2cc3ccc(OC)cc3[nH]c2=O)cc1	nt	1.6
Cn1c2c(c(=O)[nH]c1=O)C(c1ccc([N+](=O)[O-])cc1)C1=C(N2)c2ccccc2C1=O (stereo not given)	-0.25	nt
Cc1cc(C(C#N)c2nc3ccccc3o2)nc(N2CCN(C(c3ccccc3)c3ccccc3)CC2)n1 (stereo not given)	nt	0.6
Cc1cc(Oc2ccnc3cc(Cl)ccc23)ccc1Cl	-0.86	-0.75
S=C1NC2=C(CCCC2)C2(CCCCC2)N1	nt	-0.45
CC1Cc2ccccc2N1C(=O)C1CCCN1S(=O)(=O)c1cccc2nsnc12 (stereo not given)	0.375	0.05
CC(C)(C)c1cc(N/C=C/C(=O)c2ccc(Cl)cc2)no1	-0.855	-0.75
COCc1cc(C)nc(NN)c1C#N	-0.045	-0.35
CC(C)(C)NC(=O)Cn1ccc(C(F)(F)F)n1	-0.515	-0.7
O=C(OCc1cc(=O)n2cc(Br)ccc2n1)c1cc(-c2ccco2)nc2ccccc12	nt	0.6
Cc1nn(-c2ccccc2)c2oc(=O)cc(C(F)(F)F)c12	-1.33	nt
C#CCOc1cccc2oc(CCC)cc(=O)c12	50.3	-0.8
CCOc1ccc(CCNS(=O)(=O)c2ccccc2OC(F)(F)F)cc1	0.06	nt
Cc1cc(C)c(C)c(C2=NON3N(C(=O)c4ccc(F)cc4)c4ccccc4N23)c1C	0.23	nt
CCn1c(-c2ccc(OC)cc2)csc1=Nc1ccc(C(=O)O)cc1	nt	0.05
CCC(Nc1n[nH]c(=O)[nH]c1=O)C(=O)OC (stereo not given)	-0.035	1.4
c1ccc(OCCn2c(-c3cccs3)nc3ccccc32)cc1	95.7	0.15
COc1cc(OC)cc(C(=O)OCC(=O)NC2CC2)c1	nt	-0.3
NCC(O)COCc1ccccc1 (stereo not given)	nt	-0.05
CCc1ccc(NS(=O)(=O)c2ccc3[nH]cc(C(=O)NC4CCCCC4)c(=O)c3c2)cc1	-0.35	-0.25
C=CCOc1ccccc1CNc1ncn[nH]1	0.78	0.35
O=C(N/N=C/c1cc(F)c(F)cc1F)c1ccc2ccccc2c1	-0.565	nt
O=C1NC(=S)NC(=O)C1=C/C=C/c1ccccc1	0.025	nt
Cc1onc(-c2c(Cl)cccc2Cl)c1C(=O)N1CCC(C(=O)c2ccccc2)CC1	0.105	nt
COC(=O)c1cc(NC2c3ncccc3C(=O)N2c2ccc(OC)cc2)cc(C(=O)OC)c1 (stereo not given)	1.15	0.8
c1ccc(CSc2ncnc3sccc23)cc1	nt	-1
O=C1C=CC(=O)N1c1cccc2c1CCCC2	0.84	0.35
Cc1cccc(NC2=NC(=S)N(c3ccc(Cl)cc3)C23CCCC3)c1	-0.23	nt
O=C(CSc1ccccc1)Nc1c[nH]c(=O)[nH]c1=O	nt	-0.85
CC1CCCC(C)N1C(=O)Cn1c(SCC(=O)NCc2ccco2)nc2ccccc21 (stereo not given)	nt	-0.5

# Whole records as entered above. Values in the order: Ba CapD inh	AID504770
# O=C1C=CC(=O)N1c1cccc2c1CCCC2 in the list: 0.84	0.35
# c1ccc(CSc2ncnc3sccc23)cc1 in the list: nt	-1
# O=C(CSc1ccccc1)Nc1c[nH]c(=O)[nH]c1=O in the list: nt	-0.85
# Cc1cccc(NC2=NC(=S)N(c3ccc(Cl)cc3)C23CCCC3)c1 in the list: -0.23	nt

# The results go on.
structure	Ba CapD inh	AID504770
CCCCNC(=O)CC1SC(=NC(c2ccc(OC)cc2)c2c(O)[nH]c(=O)[nH]c2=O)NC1=O (stereo not given)	1.66	0.5
CCOC(=O)C1=C(C)NC(C)=C(C(=O)OCC)C1C(=O)OCc1nnc(-c2ccccc2)o1	nt	-0.35
CNC(=O)c1ccc2c(c1)CCO2	-0.31	-1.4
CCc1c(C)nc2sc(C)n[n+]2c1C	0.255	0.45
O=C(NCCCN1CCOCC1)c1cc2c(s1)CCCC2	-0.525	-2
COc1ccc(N2C(=O)C(F)(F)C2c2ccccc2)cc1 (stereo not given)	0.245	-0.65
c1ccc(N2CCN(c3ncnc4scc(-c5cccs5)c34)CC2)cc1	-0.045	0.15
CCn1c(=O)c2sccc2n2c(=S)sc(-c3ccccc3)c12	-1.04	-0.5
O=C(NCCN1C(=O)C2C3C=CC(C3)C2C1=O)OC1CCCCC1 (stereo not given)	-0.145	1
Cc1cccc(C)c1NC(=O)CCCN1C(=O)NC2(CCCC2)C1=O	nt	0.85

# Overlap with the part before: 4 compounds, then new ones.
structure	Ba CapD inh	AID504770
c1ccc(N2CCN(c3ncnc4scc(-c5cccs5)c34)CC2)cc1	-0.045	0.15
CCn1c(=O)c2sccc2n2c(=S)sc(-c3ccccc3)c12	-1.04	-0.5
O=C(NCCN1C(=O)C2C3C=CC(C3)C2C1=O)OC1CCCCC1 (stereo not given)	-0.145	1
Cc1cccc(C)c1NC(=O)CCCN1C(=O)NC2(CCCC2)C1=O	nt	0.85
CC1(C)OC2COC3(COC(=O)NNC(=O)c4ccccc4-n4cccc4)OC(C)(C)OC3C2O1 (stereo not given)	0.71	nt
CC1CCN(C(=O)CSc2n[nH]c(-c3ccccc3)n2)CC1	nt	0.2
CN1CCN(S(=O)(=O)Cc2cccc(C(F)(F)F)c2)CC1	-0.095	-0.65
Cc1nc(SCC(=O)O)n[nH]1	0.63	0.55
CCN(CC)CCC(=O)c1ccc(F)cc1	0.08	0.8
Cc1nn(-c2ccccc2)c(-c2ccc(O)cc2O)c1-c1ccccn1	nt	2.35
CC12CCC(C/C1=N\Nc1ccc([N+](=O)[O-])cc1[N+](=O)[O-])C2(C)C (stereo not given)	-0.78	nt
CC(C)N(CC(N)=O)C(=O)c1ccc(F)c(S(=O)(=O)N2CCCCC2)c1	nt	-0.6
COc1ccc(C2NCCC3(O)CCCCC23)cc1 (stereo not given)	nt	-0.3
O=C1CC(NCCc2c[nH]c3ccccc23)C(=O)N1Cc1ccccc1 (stereo not given)	1.06	-0.1
N#Cc1ccc(OC(=O)c2cccc(-n3cccc3)c2)cc1	nt	-0.25
CN1C(=O)SC(CC(=O)O)C1=O (stereo not given)	nt	-0.1
Cc1ccc(/C(O)=C2\C(=O)C(=O)N(Cc3cccnc3)C2c2ccccn2)cc1 (stereo not given)	-2.24	0.3
NC(=S)/N=N/Nc1ccc(Cl)cc1	nt	-0.55
CSc1nc2sc3c(c2c(=O)n1-c1ccccc1)CCN(C)C3	0.065	-0.55
OC(CSc1nc2ccccc2s1)C(F)(F)F (stereo not given)	-0.095	-0.15
O=C(Oc1ccccc1)N1CCCCC1	-0.115	-0.2
CN(Cc1ccc(C#N)cc1)S(=O)(=O)/C=C/c1ccccc1	nt	-0.25
CCCN(CCC)C(=O)Cn1c(=O)n(-c2ccc(Cl)cc2)c(=O)c2c3c(sc21)CCC3	44.4	-0.1
CC(C)N(C(=O)Cn1c(=O)oc2ccccc21)c1ccccc1	0.69	-0.3
Cc1ccc(Cn2nc(C)c(/C=N/NC(=O)c3ccc4c(c3)OCO4)c2C)cc1	nt	-2.05
Cc1ccccc1NC(=O)c1sc2nc3c(cc2c1N)C(=O)CC(C)(C)C3	-0.46	nt
COc1ccccc1NC(=O)COC(=O)C1CC2CCCC(C1)C2=O (stereo not given)	nt	-1.05
Cc1onc(-c2c(Cl)cccc2Cl)c1C(=O)c1ccc(F)cc1	-0.05	0.95
CC(=O)OCc1cc(C2C(C#N)=C(N)OC(N)=C2C#N)c(C)cc1C	17.7	nt
COc1ccccc1N1CCN(Cc2ccccc2F)CC1	-0.005	0.35
O=c1[nH]c(=O)n(-c2nc(-c3ccccc3)oc2-c2ccccc2)cc1Cl	4.21	nt
CC(NC(=O)OCc1cccc(OCc2ccccc2)c1)c1cccc2ccccc12 (stereo not given)	-0.065	nt
O=C(OCc1ccccc1)C1CC2C=CC1C2 (stereo not given)	-0.12	-0.1
COc1ccc2c(c1OC)C(=O)OC2NN(C)c1cccc(F)c1C#N (stereo not given)	0.335	-0.45

# Going on with the list.
# The line under a structure holds: Ba CapD inh, AID504770
> Cc1ccc2nc(CN3CCN(C/C=C/c4ccccc4)CC3)cn2c1
  nt, 0.9
> CCCc1c(C(=O)N2CC(C)OC(C)C2)cnn1-c1ccccc1 (stereo not given)
  -0.335, -0.5
> Cc1nc(N)sc1N=Nc1cccc2ccccc12
  nt, -1.55
> Cc1ccc(NC(=O)c2ccccc2O)cc1
  5.02, -1.6
> COc1ccc(-c2noc(N3CCC(C(=O)NCc4cccc(Cl)c4)CC3)n2)cc1
  -2.19, 2.1
> O=C1C(=O)N(c2nccs2)C(c2ccccc2)/C1=C(\O)c1ccc(Cl)cc1 (stereo not given)
  -0.28, nt
> CC1(C)CC2(CCO1)OC(=O)CC2C(=O)NC1CCCCC1 (stereo not given)
  0.005, -0.8
> O=C(O)c1cc(N2CCNCC2)nc2ccccc12
  nt, 0.4
> COc1cc(CN(C)C(=O)c2cc(C)on2)ccc1OCc1ccccc1
  nt, 0.8
> Fc1ccc(N=Cc2ccco2)c(F)c1F
  0.38, 0
> O=C(C1CCN(c2ccc(C(F)(F)F)cn2)CC1)N1CCC(N(C2CC2)S(=O)(=O)c2ccccc2)CC1
  0.03, nt
> O=C(CNC(=O)c1cccs1)OCc1ccc(Cl)cc1
  -0.135, -1.15
> CO[C@H]1/C=C/O[C@@]2(C)Oc3c(C)c(O)c4c(O)c(c5c(c4c3C2=O)NC2(CCN(CC(C)C)CC2)N=5)=NC(=O)/C(C)=C\C=C\[C@H](C)[C@H](O)[C@@H](C)[C@@H](O)[C@@H](C)[C@H](OC(C)=O)[C@@H]1C
  -1.48, nt
> Cc1[nH]c2ccccc2c1SCCNC(=O)/C=C/c1ccc2c(c1)OCO2
  0.175, -0.4
> CCC(C)[C@H](NC(=O)c1ccco1)C(=O)O (stereo not given in full)
  -0.77, -0.6
> O=C(COc1ccccc1)Nc1nc2c(s1)CCCC2
  i, 0.15
> CCOC(=O)c1sc2ccccc2c1NC(=O)c1coc2ccccc2c1=O
  2.29&1.81, 1.05&0.25
> CC(=O)Nc1ccc(NC(=O)c2ccccc2NC(=O)c2ccccc2)cc1
  0.805, nt
> CCN1CSC(=S)N(Cc2ccc(OC)cc2)C1
  -0.275, 1.4
> COC(=O)c1c(C(=O)OC)c2n(c1C)Cc1ccccc1C2
  0.615, -0.6
> CN1CCN(C(=O)c2oc3ccccc3c2NC(=O)c2ccccc2)CC1
  0.64, 0.75
> COc1ccc(OC)c(S(=O)(=O)NC2CCN(Cc3ccccc3)CC2)c1
  0.13, -0.2
> Cc1nc(Oc2ccc(F)cc2)c(C#N)c(C)c1Cl
  0.095, nt
> O=c1cc(O)c2sc3nc(-c4ccccc4)ccc3c2[nH]1
  16.5, 1.75
> O=S(=O)(NCCC1=CCCCC1)c1cccc2cccnc12
  -0.175, 0.45
> O=C(Nc1ccc(Cl)cc1)Nc1cc(C(=O)NCC2CCCO2)ccc1N1CC2CC(C1)c1cccc(=O)n1C2 (stereo not given)
  0.195, -0.2
> CCOc1ccccc1NC(=O)COC(=O)c1cc(Cl)cc(Cl)c1
  -1.05, 0.3
> Cc1cc(-c2ccccc2)n2ncc(-c3ccccc3)c2n1
  21.8, -0.55
> COc1ccc(S(=O)(=O)N2CCN(C)CC2)c(Cl)c1Cl
  nt, -0.35
> COC(=O)c1cc(NC(=O)/C=C/C(=O)O)ccc1N1CCOCC1
  -0.055, -0.35
> COc1ccc(N(CCCN2C(=O)c3cccc4cccc(c34)C2=O)C(=O)c2cccs2)cc1
  2.58, nt
> CC(Sc1nnnn1-c1ccccc1)C(=O)NC1CCCC1 (stereo not given)
  nt, 0.15
> C=CCOC(=O)C1=C(C)NC(SCC(=O)Nc2ccc(CC)cc2)=C(C#N)C1c1ccco1 (stereo not given)
  27.8, nt
> CCC1Oc2ccc(C)cc2N(CC(=O)NCCCN2CCN(Cc3ccccc3)CC2)C1=O (stereo not given)
  2.63, -0.25
> Nc1cc(-c2ccccc2)nn1-c1ccccc1
  0.655&-0.09, -0.8
> O=C(NCCN1CCN(S(=O)(=O)c2ccc(Cl)cc2)CC1)C(=O)Nc1ccc(F)cc1
  -0.155, nt
> CSc1nsc(SC)c1C(=O)Nc1nn(C)c2cccc(F)c12
  -0.165, -0.7
> C#CCn1c(COc2ccccc2)nc2ccccc21
  nt, 1.6
> N#Cc1cc(C#N)c(SCc2cc3c(cc2Br)OCO3)nc1N
  nt, 1.15
> Cc1cc(C)nc(N2CCCC(C)C2)n1 (stereo not given)
  nt, -0.2

# Screening data (PubChem)
